Bioassay records: PubChem BioAssay, several laboratories
Mtb hypoxia rep – reduces hypoxia-regulated biosensor signal in M. tuberculosis | 300,000 tested, 0.1% active | M. tuberculosis hypoxia-regulated fluorescent reporter, fluorescence | fluorescence inhibition, % (concentration not given with the values);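 active = 35 to 45% if threefold the growth effect, above 45% if 1.5-fold the growth effect; inactive = the rest, general growth blockers included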;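 note: wells of about 50 µL received 100 nL stock; 0% = vehicle wells and 100% = reference inhibitor wells; whole bacteria with a GFP reporter of the hypoxia response; strong numbers were not always called active; many hits fall short of the cut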
BJeLR lethal – kills HRASV12-expressing BJeLR cells | BJeLR (HRASV12) viability, CellTiter-Glo ATP luminescence, 48 h; reference of the scale not given here | inhibition, % (no concentration beside the values) | 300,000 tested, 0.17% active | AID 1554;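 active = replicate mean above 50%; inconclusive = above 50% but judged a plate artefact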;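 note: 50 nL library stock added to about 25 µL; numbers are from one replicate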
Sa RN4220 lethal – kills Staphylococcus aureus RN4220 | S. aureus RN4220 growth, OD600, 16 h | inhibition, % (concentration not given with the values) | 330,000 tested, 0.33% active | AID 1259311;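 active = z-score of -3 or lower and OD600 up to 0.18 on both plates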;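 note: plate controls were untreated cells for no effect and reference antibiotic for full effect; stock transfer was 100 nL into about 80 µL; one replicate is shown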
Autofluor counter – counter-screen for toxin protease inhibitors: compound fluorescence; 360,000 tested, 3.1% active; compound autofluorescence counterscreen, microsphere flow cytometry; stronger effect = higher value; AID 624483; fluorescence intensity (test concentration not listed);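 active = at least 3 SD above the mean of all compounds, about 16000 in these data; inconclusive = too few beads counted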;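 note: 100 nL of 1 mM stock went into each well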
Sa ugtP lethal – growth inhibition of S. aureus ugtP deletion strain; S. aureus RN4220 ugtP deletion, OD600 growth, 16 h; some inactives read as strong as hits; growth inhibition, % (test concentration not listed); 330,000 tested, 0.54% active; AID 1259309;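 active = z-score under -3 and OD600 up to 0.15 on both plates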;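 note: plate controls were untreated wells for no effect and antibiotic for full effect; wells of about 80 µL received 100 nL stock; the first replicate is given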
PrP UTR inh – suppresses PrP 5' UTR mRNA reporter expression | cell-based PrP 5' UTR mRNA reporter, plate reader | inhibition, % (concentration not given with the values) | 340,000 tested, 0.35% active | AID 488862;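 active = every replicate at 50% or more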;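 note: 0 = median of the neutral control wells; tested in H4 reporter cells; numbers are from one replicate; inactives centre near -14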
Mtb hypoxia rep growth – recorded beside Mtb hypoxia rep, whose call it bears; growth inhibition, %; measured here: M. tuberculosis growth (absorbance);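 0% = vehicle and 100% = reference antibiotic; read after six days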
Starred values were filed as active, the others as inactive.

`CCS(=O)(=O)Nc1ccc(C(=O)OC)cc1` gave Mtb hypoxia rep 1, BJeLR lethal -4, Sa RN4220 lethal 4.0, Autofluor counter 8156, Sa ugtP lethal -2, PrP UTR inh -13 and Mtb hypoxia rep growth -4.
CCOc1ccc2nc(NCCNC(=O)C3CC3)c(C)cc2c1 was read as BJeLR lethal 12, Sa RN4220 lethal 1.4, Autofluor counter 4492, Sa ugtP lethal 10 and PrP UTR inh 4.
Screening CCCCNC(=O)/C(C#N)=C/c1ccc2c(c1)OCCO2 returned Mtb hypoxia rep 8, BJeLR lethal -6, Sa RN4220 lethal 2.7, Autofluor counter 2081, Sa ugtP lethal -5, PrP UTR inh -36 and Mtb hypoxia rep growth 7.
For CCOC(=O)c1ccc(NC(=O)Nc2ccc(F)cc2)cc1 the results were BJeLR lethal -3, Sa RN4220 lethal 10, Autofluor counter 4643, Sa ugtP lethal -27 and PrP UTR inh -52.
Cc1cc(C)c2c(=O)[nH]c(SCC(=O)Nc3ccccc3)nc2n1 was read as BJeLR lethal 3, Sa RN4220 lethal -0.1, Autofluor counter 2243, Sa ugtP lethal 2 and PrP UTR inh -7.
For CC1CCCC(C)N1/N=C/c1ccccc1Br (stereo not given) the results were BJeLR lethal 1, Autofluor counter 2951 and PrP UTR inh -21.
For CCC(=O)Nc1cccc(NC(=S)NC(=O)c2cccc(C)c2)c1 the results were Mtb hypoxia rep 7, BJeLR lethal -2, Sa RN4220 lethal 4.8, Autofluor counter 2432, Sa ugtP lethal 23, PrP UTR inh -76 and Mtb hypoxia rep growth 10.
`CC(C)CCC1=NN(C(=O)c2ccco2)C(O)(C(F)(F)F)C1` (stereo not given) gave Mtb hypoxia rep -6, BJeLR lethal -4, Sa RN4220 lethal 38, Autofluor counter 4055, Sa ugtP lethal 1, PrP UTR inh -6 and Mtb hypoxia rep growth 3.
Screening NC(=O)c1cnccc1C=Cc1ccccc1 returned Mtb hypoxia rep 6, Sa RN4220 lethal 1.2, Autofluor counter 3570, Sa ugtP lethal 0, PrP UTR inh -49 and Mtb hypoxia rep growth 5.
Cc1ccc(C(=O)N/C(=C\c2ccc([N+](=O)[O-])cc2)C(=O)NCCc2ccccc2)cc1 was read as Mtb hypoxia rep 7, BJeLR lethal -4, Sa RN4220 lethal 0.6, Autofluor counter 25796*, Sa ugtP lethal 0, PrP UTR inh -9 and Mtb hypoxia rep growth 0.
`CC(=O)Nc1ccc(S(=O)(=O)N2CCC(C(=O)NCc3ccncc3)CC2)cc1` gave Mtb hypoxia rep 10, BJeLR lethal 6, Sa RN4220 lethal 6.1, Autofluor counter 5630, Sa ugtP lethal 10, PrP UTR inh -7 and Mtb hypoxia rep growth 3.
Screening CC(OC(=O)Cn1cnc2ccccc2c1=O)C(=O)NCc1ccccc1 (stereo not given) returned Mtb hypoxia rep 2, BJeLR lethal -11, Sa RN4220 lethal 3.6, Autofluor counter 6404, Sa ugtP lethal 9, PrP UTR inh -7 and Mtb hypoxia rep growth 6.
CCc1ccccc1NC(=O)CCC(=O)c1cccs1 was read as Mtb hypoxia rep -8, BJeLR lethal -1, Sa RN4220 lethal 0.9, Autofluor counter 6054, Sa ugtP lethal 0, PrP UTR inh -6 and Mtb hypoxia rep growth -6.
`O=S(=O)(Nc1ccon1)c1ccc(F)c(F)c1` gave Mtb hypoxia rep -6, BJeLR lethal -11, Sa RN4220 lethal 2.6, Autofluor counter 5753, Sa ugtP lethal 4, PrP UTR inh -2 and Mtb hypoxia rep growth -13.
For COc1ccc(OCC(=O)N/N=c2\oc3c(OC)cccc3cc2C(N)=O)cc1 the results were BJeLR lethal 8, Autofluor counter 2008 and PrP UTR inh -6.
Screening O=C(CCCn1c(=O)[nH]c2cc(Cl)ccc2c1=O)NCC1CCCO1 (stereo not given) returned BJeLR lethal -9, Sa RN4220 lethal 0.8, Autofluor counter 2678, Sa ugtP lethal 1 and PrP UTR inh -16.
For Cc1cccc(C(=O)N2CCN=C2SCc2ccc([N+](=O)[O-])cc2)c1 the results were Mtb hypoxia rep 8, BJeLR lethal -16, Sa RN4220 lethal -2.0, Autofluor counter 4124, Sa ugtP lethal 1, PrP UTR inh -7 and Mtb hypoxia rep growth 6.
For O=C(O)CC(NC(=O)Cc1ccc([N+](=O)[O-])cc1)c1ccc2c(c1)OCO2 (stereo not given) the results were Mtb hypoxia rep 11, BJeLR lethal 3, Sa RN4220 lethal 3.9, Autofluor counter 3706, Sa ugtP lethal 7, PrP UTR inh -4 and Mtb hypoxia rep growth -1.
For Cc1ccc(NC(=O)c2cc(N3C(=O)CCC3=O)ccc2N2CCOCC2)cc1 the results were Mtb hypoxia rep 3, BJeLR lethal -10, Sa RN4220 lethal 4.3, Autofluor counter 4284, Sa ugtP lethal 0, PrP UTR inh -21 and Mtb hypoxia rep growth -1.
For CNC(=O)c1cc(C(=O)c2ccc(Cl)cc2)c(Br)[nH]1 the results were Mtb hypoxia rep 1, BJeLR lethal 2, Sa RN4220 lethal 2.0, Autofluor counter 4133, Sa ugtP lethal -1, PrP UTR inh -30 and Mtb hypoxia rep growth 1.
O=C(O)C1OCC2(CO1)COC(C(=O)O)OC2 (stereo not given) was read as Mtb hypoxia rep 4, Sa RN4220 lethal 4.5, Autofluor counter 3952, Sa ugtP lethal 4, PrP UTR inh -11 and Mtb hypoxia rep growth 5.
Cc1ccc(C)c(NC(=S)N2CCC(NC(=O)c3ccccc3)CC2)c1 was read as BJeLR lethal -4, Autofluor counter 3926 and PrP UTR inh 10.
Screening C(=Nn1cnnc1)c1ccc(N2CCOCC2)cc1 returned Mtb hypoxia rep 5, Sa RN4220 lethal 0.8, Sa ugtP lethal 1 and Mtb hypoxia rep growth -3.
`O=C(CN1C(=O)COc2ccccc21)N1CCc2ccccc2C1` gave Mtb hypoxia rep 5, BJeLR lethal -4, Sa RN4220 lethal -1.5, Autofluor counter 6641, Sa ugtP lethal 2, PrP UTR inh -10 and Mtb hypoxia rep growth 0.
CCOC(=O)c1ccc(S(=O)(=O)N2CCN(C/C=C/c3ccccc3)CC2)cc1 was read as Mtb hypoxia rep 8, Sa RN4220 lethal 3.7, Autofluor counter 3813, Sa ugtP lethal 10, PrP UTR inh -20 and Mtb hypoxia rep growth 9.
Screening O=S(=O)(c1cccc(S(=O)(=O)N2CCCC2)c1)c1cccc(S(=O)(=O)N2CCCC2)c1 returned Mtb hypoxia rep 5, BJeLR lethal 4, Sa RN4220 lethal 3.0, Autofluor counter 21252*, Sa ugtP lethal 1, PrP UTR inh 6 and Mtb hypoxia rep growth 10.
For O=C(CCCC1=NS(=O)(=O)c2ccccc2N1)N1CCN(c2ccc([N+](=O)[O-])cc2)CC1 the results were Mtb hypoxia rep 3, BJeLR lethal -1, Sa RN4220 lethal 3.7, Autofluor counter 5575, Sa ugtP lethal 6, PrP UTR inh -16 and Mtb hypoxia rep growth 6.
Screening CC1(C(=O)OCc2cc(=O)n3cc(Br)ccc3n2)CC1(Cl)Cl (stereo not given) returned Mtb hypoxia rep -4, BJeLR lethal -4, Sa RN4220 lethal 9.0, Autofluor counter 2125, Sa ugtP lethal -9, PrP UTR inh -61 and Mtb hypoxia rep growth 2.
O=C(O)c1nc(-c2ccccc2)n(-c2ccc(Cl)cc2)n1 was read as BJeLR lethal 2, Sa RN4220 lethal 1.5, Autofluor counter 5278, Sa ugtP lethal -2 and PrP UTR inh -13.
For CCO[C@H]1OC(C(=O)NC2CC2)=C[C@@H](c2ccc3c(c2)OCO3)[C@@H]1CCCO the results were BJeLR lethal -1, Autofluor counter 3158 and PrP UTR inh -15.
CC(C)N1CCN(Cc2cccn2-c2ccccn2)CC1CCO (stereo not given) was read as Mtb hypoxia rep 3, BJeLR lethal 3, Sa RN4220 lethal -0.6, Autofluor counter 2412, Sa ugtP lethal 8, PrP UTR inh -13 and Mtb hypoxia rep growth 0.
COCCNC(=O)NC(=O)CSc1nc(C)c(C)c(C)n1 was read as Mtb hypoxia rep 10, BJeLR lethal 8, Sa RN4220 lethal 8.8, Autofluor counter 4498, Sa ugtP lethal 5, PrP UTR inh -4 and Mtb hypoxia rep growth 13.
Clc1ccsc1-c1ccnc(-n2cccc2)n1 was read as Mtb hypoxia rep 14, BJeLR lethal -13, Sa RN4220 lethal 74, Autofluor counter 3262, Sa ugtP lethal 5, PrP UTR inh -5 and Mtb hypoxia rep growth 6.
`O=c1oc2ccccc2c(O)c1C=Nc1ccccn1` gave Mtb hypoxia rep 10, Sa RN4220 lethal 1.5, Sa ugtP lethal -5 and Mtb hypoxia rep growth 10.
CCn1c(CCCOc2ccc(Cl)cc2Cl)nnc1SCC(=O)Nc1cc(F)ccc1C was read as BJeLR lethal -5, Sa RN4220 lethal -1.3, Autofluor counter 2401, Sa ugtP lethal -33 and PrP UTR inh -7.
CCCCN(C(=O)CSc1nnnn1C)c1c(N)n(Cc2ccccc2)c(=O)[nH]c1=O was read as Mtb hypoxia rep -8, BJeLR lethal 10, Sa RN4220 lethal 2.8, Autofluor counter 4637, Sa ugtP lethal 4, PrP UTR inh -21 and Mtb hypoxia rep growth -3.

A run of entries of the results above:
Clc1ccsc1-c1ccnc(-n2cccc2)n1 was read as Mtb hypoxia rep 14, BJeLR lethal -13, Sa RN4220 lethal 74, Autofluor counter 3262, Sa ugtP lethal 5, PrP UTR inh -5 and Mtb hypoxia rep growth 6.
`O=c1oc2ccccc2c(O)c1C=Nc1ccccn1` gave Mtb hypoxia rep 10, Sa RN4220 lethal 1.5, Sa ugtP lethal -5 and Mtb hypoxia rep growth 10.

The results go on.
COCCn1c(Cc2ccccc2)nnc1SCC(=O)NC(C)C was read as Mtb hypoxia rep 7, BJeLR lethal -1, Sa RN4220 lethal 4.7, Autofluor counter 4116, Sa ugtP lethal 4, PrP UTR inh -30 and Mtb hypoxia rep growth 6.
O=C(NCc1ccccc1)Nc1cccc2ccccc12 was read as Mtb hypoxia rep 18, BJeLR lethal 6, Sa RN4220 lethal 2.5, Autofluor counter 3865, Sa ugtP lethal -1, PrP UTR inh -29 and Mtb hypoxia rep growth 13.
Screening CCOC(=O)C(=O)Cc1nc(OCc2ccccc2)cc(OCc2ccccc2)n1 returned Mtb hypoxia rep 12, Sa RN4220 lethal -1.4, Autofluor counter 3038, Sa ugtP lethal 22, PrP UTR inh -16 and Mtb hypoxia rep growth 8.
`O=C(COc1coc(CN2CCc3ccccc32)cc1=O)Nc1cccc(F)c1` gave Mtb hypoxia rep -1, BJeLR lethal 1, Sa RN4220 lethal -5.4, Autofluor counter inconclusive, Sa ugtP lethal -4, PrP UTR inh -9 and Mtb hypoxia rep growth -4.
Screening Cc1ccc(S(=O)(=O)c2cn(C)c3cc(N4CCOCC4)c(F)cc3c2=O)cc1 returned Mtb hypoxia rep 4, BJeLR lethal 6, Sa RN4220 lethal -1.7, Autofluor counter 5467, Sa ugtP lethal 0, PrP UTR inh -22 and Mtb hypoxia rep growth 8.
For COCCCn1c(=O)/c(=C/c2ccccc2OC(F)F)s/c1=C(\C#N)C(=O)NCCOC the results were Mtb hypoxia rep 6, Sa RN4220 lethal 2.0, Autofluor counter 3123, Sa ugtP lethal 1, PrP UTR inh -7 and Mtb hypoxia rep growth -1.
`O=C(CSc1nncs1)NC(=O)Nc1ccc2c(c1)OCCO2` gave Mtb hypoxia rep 5, BJeLR lethal -5, Sa RN4220 lethal 3.7, Autofluor counter 5969, Sa ugtP lethal 4, PrP UTR inh -70 and Mtb hypoxia rep growth 7.
`CCOc1ccc(N(CC(=O)Nc2ccc(OC)cc2)C2=NC3CS(=O)(=O)CC3S2)cc1` (stereo not given) gave Mtb hypoxia rep 13, BJeLR lethal -12, Sa RN4220 lethal -7.9, Autofluor counter 7780, Sa ugtP lethal 0, PrP UTR inh 16 and Mtb hypoxia rep growth 9.
For C=CCC(NCc1ccccc1)c1ccc(Cl)cc1 (stereo not given) the results were Mtb hypoxia rep 0, BJeLR lethal -5, Sa RN4220 lethal 6.7, Autofluor counter 2081, Sa ugtP lethal -5, PrP UTR inh 0 and Mtb hypoxia rep growth 1.
Screening Cc1cc(N2CCN(c3ccccc3F)CC2)nc2cc(O)ccc12 returned Mtb hypoxia rep -8, BJeLR lethal 6, Sa RN4220 lethal 5.8, Autofluor counter 3560, Sa ugtP lethal -17, PrP UTR inh -48 and Mtb hypoxia rep growth 8.
Screening CN(CC(=O)Nc1ccccc1Cl)C(=O)C1CSC2(C)CCC(=O)N12 (stereo not given) returned Mtb hypoxia rep 6, Sa RN4220 lethal 2.4, Autofluor counter 3911, Sa ugtP lethal 3, PrP UTR inh -29 and Mtb hypoxia rep growth -3.
